Compound activity as filed in PubChem BioAssay.
HUVEC tox IL1B = cytotoxicity in IL-1B stimulated HUVEC, primary screen, cytotoxicity control for IL-1B NFkB translocation project, imaging, Hoechst nuclear count, IL-1B stimulus. HUVEC cell count loss. cell count reduction, % at 2 µM. 94,000 tested, 0.41% active;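 active means cell count reduction more than 3 SD above the screen-wide mean, cut at about 70% in these data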;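 further: normalized per plate to untreated control cells as the no-loss baseline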
Smad3 FoxH1 inh = Smad3/FoxH1 peptide binding inhibitors, primary screen, biochemical, TR-FRET; Mothers against decapentaplegic homolog 3 (Homo sapiens), P84022; TR-FRET Smad3/Dy647-FoxH1 peptide binding, europium anti-His; inhibition, % at 25 µM; 88,000 tested, 0.29% active; AID 630, 2007;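 active means compounds that reduce the energy-transfer binding signal between the protein and its labelled peptide by more than half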;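 further: 0% = Smad3 plus labelled peptide maximal FRET and 100% = peptide-only background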
Target sequence (P84022 whole entry, looked up): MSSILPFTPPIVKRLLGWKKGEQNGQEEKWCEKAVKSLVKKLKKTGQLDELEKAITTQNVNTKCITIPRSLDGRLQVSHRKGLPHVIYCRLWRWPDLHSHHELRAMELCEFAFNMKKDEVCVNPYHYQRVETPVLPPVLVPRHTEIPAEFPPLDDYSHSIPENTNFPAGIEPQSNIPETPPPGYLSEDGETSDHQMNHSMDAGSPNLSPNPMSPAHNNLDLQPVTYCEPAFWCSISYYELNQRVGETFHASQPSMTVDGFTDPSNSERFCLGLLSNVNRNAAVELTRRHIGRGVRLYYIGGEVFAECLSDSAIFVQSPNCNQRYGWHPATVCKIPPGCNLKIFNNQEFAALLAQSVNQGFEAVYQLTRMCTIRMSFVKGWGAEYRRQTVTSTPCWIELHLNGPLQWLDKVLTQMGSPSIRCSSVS
ERb coact inh = inhibitors of ERβ-SRC1 coactivator interaction, primary screen, biochemical, TR-FRET, ERβ LBD, SRC-1 peptide; Estrogen receptor beta (Homo sapiens), Q92731; TR-FRET ER-beta LBD / SRC1-Cy5 peptide binding; receptor agonist-loaded with 1 µM estradiol; inhibition, % at 25.6 µM; 86,000 tested, 1.3% active; AID 633, 2007;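 active means compounds whose percent inhibition of the receptor-coactivator binding signal exceeds about 50% in the single-dose screen, limit read from the data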;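 further: 0% = receptor plus peptide wells without compound and 100% = peptide-only wells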
Target sequence (Q92731 whole entry, looked up, the tested form may be a part): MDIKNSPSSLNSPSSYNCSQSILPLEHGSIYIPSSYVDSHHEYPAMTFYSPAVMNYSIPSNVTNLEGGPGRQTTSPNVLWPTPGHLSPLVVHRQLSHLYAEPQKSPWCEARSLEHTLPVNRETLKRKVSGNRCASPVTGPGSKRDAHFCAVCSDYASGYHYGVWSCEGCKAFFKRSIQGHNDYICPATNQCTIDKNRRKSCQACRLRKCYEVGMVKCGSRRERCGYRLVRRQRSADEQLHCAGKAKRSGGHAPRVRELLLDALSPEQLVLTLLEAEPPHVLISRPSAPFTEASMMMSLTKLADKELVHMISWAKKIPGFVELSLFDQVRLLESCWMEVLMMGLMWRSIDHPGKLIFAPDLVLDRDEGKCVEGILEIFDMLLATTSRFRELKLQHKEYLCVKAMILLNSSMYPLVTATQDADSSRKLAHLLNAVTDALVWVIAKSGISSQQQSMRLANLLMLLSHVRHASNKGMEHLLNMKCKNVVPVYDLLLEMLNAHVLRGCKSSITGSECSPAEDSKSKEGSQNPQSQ
HUVEC tox TNFa = cytotoxicity in TNFa-stimulated HUVEC, primary screen, cytotoxicity control for VCAM1 expression modulator project, imaging, Hoechst nuclei count; HUVEC TNFalpha-stimulated, Hoechst cell count; AID 848, 2007; 93,000 tested, 0.17% active; cell count reduction, % at 2 µM;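 active means cell count reduction exceeding the screen mean by over 5 SD, scaled to untreated wells per plate, cut at about 78% in these data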;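 further: cells counted after 24 h of TNF alpha exposure following the 1 h pretreatment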
Calb biofilm kill = clotrimazole potentiators killing Candida biofilms, primary screen, with clotrimazole, Alamar Blue | inhibition, % at 6 µM | C. albicans biofilm + clotrimazole | 85,000 tested, 0.14% active;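 active means inhibition above 20%; inactive means inhibition below 20%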;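 further: preformed 24 hr biofilms exposed to compound for 48 hr; 0% = biofilm without compound and 100% = blank killed by clotrimazole plus chlorhexidine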
VCAM1 TNFa inh = inhibitors of TNFa-induced VCAM1 expression, primary screen, imaging, HUVEC, TNFa stimulus, immunofluorescence; inhibition, % at 2 µM; HUVEC TNFa-induced VCAM-1 immunofluorescence, high-content imaging; AID 802, 2007; 95,000 tested, 0.48% active;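 active means inhibition above the batch mean plus 3 SD, with images confirmed as a hit by eye, cut at about 37% in these data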;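 further: 0% = TNF-stimulated DMSO wells and 100% = unstimulated control wells; not every result past the cut was called active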
F-actin modifier = modifiers of F-actin cytoskeleton organization, primary screen, imaging, HUVEC, phalloidin staining, high-content imaging; HUVEC TNFa F-actin phalloidin imaging; inhibition, % at 2 µM; 91,000 tested, 0.18% active; AID 836, 2007;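 active means inhibition above the batch mean plus 3 SD and confirmed as a hit by visual image inspection, cut at about 30% in these data, passing the limit was not always enough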; further: strong numbers were not always called active
The depositor's hits bear a star; nt = not tested or not shown; [ ] = dose if it differs, or a comment. This is a subset; count on the stated rates, not on these rows.

entry	Compound	F-actin modifier	HUVEC tox IL1B	Smad3 FoxH1 inh	VCAM1 TNFa inh	ERb coact inh	HUVEC tox TNFa	Calb biofilm kill
1	Cc1ccc(C(=O)NNC(=O)C2CCCN(c3ncccn3)C2)cc1 (stereo not given)	-5	-37	nt	8	nt	-6	nt
2	O=C(Nc1cccc(Cl)c1)NC1CCCCC1	10	8	nt	19	nt	-12	nt
3	CSc1cc(C)n(-c2ccccc2)c(=S)c1C(C)=O	-1	21	nt	-72	nt	14	nt
4	CCS(=O)(=O)N1CCN(C(=O)COc2ccc(-c3ccccc3)cc2)CC1	nt	-28	8	-6	3	-14	1
5	O=C(NCc1cccs1)C1CCN(S(=O)(=O)N2CCCC2)CC1	-1	29	3	6	-7	-6	10
6	CC1CN(C2CC(C)(C)NC(C)(C)C2)CCC1=O (stereo not given)	11	-18	-6	10	-3	-28	10
7	O=C(NCCCn1ccnc1)c1ccco1	-1	13	-2	2	10[fluorescence artefact?]	-3	-4
8	O=C(CCNc1cccc(C(F)(F)F)c1)c1ccco1	14	-12	4	0	42	-14	-1

Next part
entry	Compound	F-actin modifier	HUVEC tox IL1B	Smad3 FoxH1 inh	VCAM1 TNFa inh	ERb coact inh	HUVEC tox TNFa	Calb biofilm kill
9	CC1(C)N=C(SCC(=O)Nc2ccccc2)C(c2ccc(Cl)cc2)=N1	12	-15	13	-10	-7	-8	3
10	Cc1ccc(C(=O)CSC2=C(C#N)C(c3ccco3)C3=C(CC(C)(C)CC3=O)N2)cc1 (stereo not given)	-30	3	-2	15	-1	3	4
11	Cc1cc2n(c(=O)c1C#N)CCCN2c1ccccc1	3	0	-1	2	-11	-5	6
12	O=C(CCNc1cc(Cl)cc(Cl)c1)c1cccs1	-29	6	nt	4	nt	8	nt
13	C=CCN(C(=O)Nc1ccc2oc(C)nc2c1)c1ccccc1	16	-4	1	20	7[fluorescence artefact?]	-2	5
14	CCC1=Nc2cc(C(=O)NCCCOC(C)C)ccc2Sc2ccccc21	-10	nt	2	19	-3	-9	5
15	O=C(NC1CC2CCCC(C1)N2Cc1ccco1)NC12CC3CC(CC(C3)C1)C2 (stereo not given)	-19	-28	8[fluorescence artefact?]	6	2	-36	4
16	COc1nc(NCCc2ccc(OC)c(OC)c2)nc(OC)n1	29	8	2	-55	-1[fluorescence artefact?]	nt	3

Part of the list above, with each value named:
#12 O=C(CCNc1cc(Cl)cc(Cl)c1)c1cccs1
- F-actin modifier: -29
- HUVEC tox IL1B: 6
- Smad3 FoxH1 inh: nt
- VCAM1 TNFa inh: 4
- ERb coact inh: nt
- HUVEC tox TNFa: 8
- Calb biofilm kill: nt
#13 C=CCN(C(=O)Nc1ccc2oc(C)nc2c1)c1ccccc1
- F-actin modifier: 16
- HUVEC tox IL1B: -4
- Smad3 FoxH1 inh: 1
- VCAM1 TNFa inh: 20
- ERb coact inh: 7[fluorescence artefact?]
- HUVEC tox TNFa: -2
- Calb biofilm kill: 5
#14 CCC1=Nc2cc(C(=O)NCCCOC(C)C)ccc2Sc2ccccc21
- F-actin modifier: -10
- HUVEC tox IL1B: nt
- Smad3 FoxH1 inh: 2
- VCAM1 TNFa inh: 19
- ERb coact inh: -3
- HUVEC tox TNFa: -9
- Calb biofilm kill: 5
#15 O=C(NC1CC2CCCC(C1)N2Cc1ccco1)NC12CC3CC(CC(C3)C1)C2 (stereo not given)
- F-actin modifier: -19
- HUVEC tox IL1B: -28
- Smad3 FoxH1 inh: 8[fluorescence artefact?]
- VCAM1 TNFa inh: 6
- ERb coact inh: 2
- HUVEC tox TNFa: -36
- Calb biofilm kill: 4

Continued:
entry	Compound	F-actin modifier	HUVEC tox IL1B	Smad3 FoxH1 inh	VCAM1 TNFa inh	ERb coact inh	HUVEC tox TNFa	Calb biofilm kill
17	Cc1cc(NS(=O)(=O)c2ccc(NC(=O)c3oc4ccccc4c3C)cc2)no1	2	14	20	-2	22	8	4
18	COc1ccc(/C(O)=C2/C(=O)C(=O)N(CCN(C)C)C2c2ccc(OC)c(OC)c2)c(C)c1 (stereo not given)	nt	8	1	nt	6	nt	8
19	CN(C(=O)Nc1ccc(S(=O)(=O)N(C)C)cc1)C1CCCCC1	0	-16	nt	-1	nt	-3	nt
20	COc1ccc(CNc2nc3c(c(=O)n(Cc4ccc(Cl)cc4)c(=O)n3C)n2C)cc1	-1	-4	-9	-14	0[fluorescence artefact?]	-11	5
21	N#CCCN(CCC#N)C(=O)c1ccc2c(c1)OCO2	-5	3	10	16	24	1	6
22	COc1ccc2cc(CN(CCO)C(=O)c3ccc(Br)cc3)c(=O)[nH]c2c1	10	-8	1	26	5[fluorescence artefact?]	-7	-4
23	COc1ccccc1NS(=O)(=O)c1cc(C(=O)N2CC(C)CC(C)C2)ccc1C (stereo not given)	-12	-7	nt	-3	nt	-9	nt
24	CC(C(=O)NCC1(c2ccccc2)CCCC1)N1CCOCC1 (stereo not given)	-7	-52	8	7	-1[fluorescence artefact?]	-11	3

(further entries)
entry	Compound	F-actin modifier	HUVEC tox IL1B	Smad3 FoxH1 inh	VCAM1 TNFa inh	ERb coact inh	HUVEC tox TNFa	Calb biofilm kill
25	Cc1ccc(C(=O)Nc2ccc3c(c2)OCO3)cc1	-3	21	nt	46	nt	11	nt
26	COc1ccc(CNC(=O)CCSc2nc(-c3ccc4c(c3)OCO4)cc(C(F)(F)F)n2)cc1	5	-10	1	-3	-5	-24	6
27	CC1CC(C(F)F)n2nc(C(=O)Nc3sc4c(c3C#N)CCC(C(C)(C)C)C4)nc2N1 (stereo not given)	12	17	-7[fluorescence artefact?]	-10	1	-17	5
28	CCc1cccc(C)c1NC(=O)CSc1nnc(-c2ccco2)n1N	31	21	-7	-13	-6	13	3
29	O=C(CN1CCOCC1)Nc1ncc(Br)cc1Br	-52	-3	2	-14	-2[fluorescence artefact?]	13	7
30	O=C(CNc1ccc(C(F)(F)F)cc1[N+](=O)[O-])OCC(=O)c1ccccc1	-5	-15	3	19	-16	-43	3
31	Cc1ccc(C)c(NS(=O)(=O)c2cc(C(=O)NCCSC3CCCCC3)ccc2C)c1	-5	-32	nt	-6	nt	-2	nt
32	O=C(NCc1cccs1)C1CCN(c2ccc(S(=O)(=O)N3CCOCC3)cc2Cl)CC1	-11	-46	8	37	1[fluorescence artefact?]	14	4

(continued)
entry	Compound	F-actin modifier	HUVEC tox IL1B	Smad3 FoxH1 inh	VCAM1 TNFa inh	ERb coact inh	HUVEC tox TNFa	Calb biofilm kill
33	COc1ccc(Cl)cc1-c1nc(-c2ccc(NC(=O)c3ccncc3)cc2)no1	-6	-11	nt	-10	nt	-5	nt
34	CCC(C)NC(=O)C1CCCCN1S(=O)(=O)c1ccc(F)cc1 (stereo not given)	8	-51	9	1	-12	-10	5
35	CC/C(=N\n1nnnc1Nc1ccccc1)c1ccccc1	2	-34	3	6	-9	-12	-1
36	CCc1nc(NCC2CCCO2)c(C#N)c2c1COC(C)(C)C2 (stereo not given)	1	-36	nt	9	nt	-3	nt
37	CC(NC(=O)Cc1ccc(F)cc1)c1ccccc1 (stereo not given)	-11	-6	nt	-9	nt	-30	nt
38	CC(C)CNC(=O)CCCc1ccccc1	-5	8	-4	-5	-1	6	10
39	CCOC(=O)C1C(=O)N(C(=O)c2ccc(OC)cc2)CC1c1ccccc1 (stereo not given)	3	-28	-4	8	2	-4	4
40	COc1cccc(NC(=O)N(C2CCCCC2)C(C)c2cccs2)c1 (stereo not given)	25	-15	-3	6	-7	-50	3

(listing goes on)
entry	Compound	F-actin modifier	HUVEC tox IL1B	Smad3 FoxH1 inh	VCAM1 TNFa inh	ERb coact inh	HUVEC tox TNFa	Calb biofilm kill
41	Nc1c(-c2ccc(Cl)cc2)cnn1C1CCS(=O)(=O)C1 (stereo not given)	-14	-17	3	0	-7	-9	10
42	COC(=O)c1ccc(N=C2S/C(=C\c3cc(C)n(-c4cccnc4)c3C)C(=O)N2C)cc1	-15	-12	nt	-1	nt	5	nt
43	O=C(C(Cc1ccccc1)N1C(=O)C2C3C=CC(C3)C2C1=O)N1CCCCCC1 (stereo not given)	5	-70	-7	5	10	-22	8
44	O=C(NCCN1CCOCC1)c1cc2c(=O)n3ccccc3nc2n1Cc1ccccc1	-2	-12	-2	-2	5	-33	3
45	Cc1nc2ccc(NC(=O)NCc3ccco3)cc2s1	-8	11	10	-14	0	22	4
46	O=C(/C=C/c1cccc(C(F)(F)F)c1)Nc1cccc(C(F)(F)F)c1	18	-55	nt	-12	nt	-29	nt
47	O=C(Nc1ccccc1)C1=C(O)CC(c2ccco2)CC1=Nc1ccccc1 (stereo not given)	nt	-4	2	-2	26	-37	3
48	Cc1ccc(C(=O)CCC(=O)Nc2cccc(C(F)(F)F)c2)cc1	6	-9	nt	-12	nt	-42	nt

Full records as entered above. Order of screens: F-actin modifier, HUVEC tox IL1B, Smad3 FoxH1 inh, VCAM1 TNFa inh, ERb coact inh, HUVEC tox TNFa, Calb biofilm kill
O=C(Nc1ccccc1)C1=C(O)CC(c2ccco2)CC1=Nc1ccccc1 (stereo not given) across the screens: nt, -4, 2, -2, 26, -37, 3
O=C(C(Cc1ccccc1)N1C(=O)C2C3C=CC(C3)C2C1=O)N1CCCCCC1 (stereo not given) across the screens: 5, -70, -7, 5, 10, -22, 8

Remaining list, next part:
entry	Compound	F-actin modifier	HUVEC tox IL1B	Smad3 FoxH1 inh	VCAM1 TNFa inh	ERb coact inh	HUVEC tox TNFa	Calb biofilm kill
49	O=C(NCc1ccco1)C1CCCN(S(=O)(=O)c2cnc[nH]2)C1 (stereo not given)	12	3	-8	2	2	-18	7
50	COc1cccc(-c2cc(C(=O)Nc3ccc4c(c3)OCCO4)c3ccccc3n2)c1	-7	-18	nt	-2	nt	1	nt
51	CC(C)Sc1nc2c(c(=O)n1-c1ccc(F)cc1)SCC2	2	-18	-7	94*	6	6	7
52	CCC(CC)C(=O)OCC(=O)NC12CC3CC(CC(C3)C1)C2	-9	-25	30[fluorescence artefact?]	-6	-8	-2	9
53	COc1ccc(C2/C(=C(\O)c3cc(C)ccc3C)C(=O)C(=O)N2CCN(C)C)cc1OC (stereo not given)	-1	-187	-25	12	-7[fluorescence artefact?]	4	-1
54	CCOc1ccc(C(=O)NCCCn2ccnc2)cc1	-13	-22	2	7	-7	9	5
55	O=C(NNC(=O)C1CCCN(c2ncccn2)C1)c1ccc(F)cc1 (stereo not given)	-12	-9	nt	12	nt	-14	nt
56	CCCCOc1ncnc2c1[nH]c1ccc(F)cc12	2	-9	0	3	17[fluorescence artefact?]	-20	0

(cont.)
entry	Compound	F-actin modifier	HUVEC tox IL1B	Smad3 FoxH1 inh	VCAM1 TNFa inh	ERb coact inh	HUVEC tox TNFa	Calb biofilm kill
57	COc1cccc(C2=NOC(C(=O)NC(C)C)C2)c1 (stereo not given)	31	-4	-2	-9	-7[fluorescence artefact?]	-29	4
58	CC1CCc2c(nc3ncnn3c2Nc2ccc(OC(F)(F)F)cc2)C1 (stereo not given)	-13	32	-9	8	25	4	2
59	O=C(c1cccnc1)N1CCN(Cc2cccc(F)c2)CC1	-4	-12	nt	5	nt	-10	nt
60	Cc1ccc(OCC(=O)NNC(=O)C2CCN(c3ncccn3)CC2)cc1	-4	-19	nt	-1	nt	-25	nt
61	COc1ccc(CNC(=O)c2ccc(-c3ccccc3)cc2)cc1	13	-8	nt	11	nt	-12	nt
62	O=C1CC(C(=O)N2CCN(c3ccc(F)cc3)CC2)CN1CCc1ccccc1 (stereo not given)	-2	5	-5	-15	-7	-11	-3
63	CN(Cc1ccccc1)C(=O)CCSc1nc(-c2ccc3c(c2)OCO3)cc(C(F)(F)F)n1	-4	23	1	5	1	-9	3
64	CC(=O)Nc1ccc(C(=O)NC2CCCC2)cc1	-6	-39	-1	23	10	-12	5
